High-throughput results (PubChem BioAssay)
Shh pathway inh: Sonic Hedgehog pathway inhibition; Shh-LIGHT2 Gli-luciferase reporter, 30 h; inhibition, % (no concentration beside the values); 2.1% of 22,000 active; AID 2313;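 active = replicate mean of 65% or more; inconclusive = mean lower but half the replicates past it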;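 also: pathway switched on by Shh-conditioned medium diluted 1 in 25 in low serum; 100 nL library stock added to about 40 µL; 0% = median of neutral wells and 100% = positive control level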
PD-1 reversal: activators reversing PD-1 mediated T-cell inhibition | 29,000 tested, under 10 active | activation, % (concentration not given with the values) | primary human CD4 T cells, PD-L1 beads, CellTiter-Glo 96 h;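 active = replicate mean of 50% or more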;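 also: 0% = median vehicle wells and 100% = positive control; 100 nL library stock added to about 50 µL; numbers are from one replicate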
MITF inh: MITF inhibition | TRPM1 promoter luciferase, luminescence, 24 h | 0.28% of 37,000 active | inhibition, % (no concentration beside the values);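 active = most replicates at 85% or more, or half of them and the mean; inconclusive = half reach 85% but not the mean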;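 also: human melanocyte line stably carrying TRPM1 promoter luciferase reporter; 0% = vehicle wells and 100% = a positive control; the first replicate is given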
YB-1 expression: YB-1 expression inhibition. delta delta Cp (YB-1 minus CDIP) (no concentration beside the values). AID 434959. 0.37% of 30,000 active. U2OS, qRT-PCR YB-1 vs CDIP delta delta Cp, 16 h; active compounds read high; zero = DMSO, each unit about twofold;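 active = delta delta Cp rounded down to an integer at or above 3, about 3 SD of DMSO wells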;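 also: higher means less YB-1 transcript or more CDIP transcript relative to DMSO; stock transfer was 100 nL into about 100 µL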
Starred values were filed as active, the others as inactive; ? = inconclusive; nt = not tested or not shown. This is a subset (hit frequency here may not be typical).

SMILES | Shh pathway inh | PD-1 reversal | MITF inh | YB-1 expression
C[C@H]1CN([C@@H](C)CO)C(=O)c2cccc(NC(=O)NC3CCCCC3)c2O[C@H]1CN(C)C(=O)Nc1ccc(F)cc1 | -30.7 | 1.0 | -0.4 | -0.00853
COc1ccc(CN(C)C[C@H]2Oc3ccc(NC(=O)Nc4cccc5ccccc45)cc3C(=O)N([C@H](C)CO)C[C@@H]2C)cc1 | 20.7 | -0.5 | -0.4 | 0.0989
C[C@@H]1CN([C@H](C)CO)C(=O)c2cccc(NC(=O)C3CCOCC3)c2O[C@@H]1CN(C)S(C)(=O)=O | -42.4 | nt | -17.6 | -0.181
CNC[C@H]1Oc2c(NC(=O)Nc3ccc4c(c3)OCO4)cccc2C(=O)N([C@@H](C)CO)C[C@H]1C | nt | nt | -18.9 | -0.23
COC(=O)c1c(NC(=O)C2CC(=O)NN2Cc2ccccc2)sc2c1CCC2 (centres undefined) | nt | -7.4 | 16.6 | nt
C[C@@H]1CN([C@@H](C)CO)C(=O)c2cccc(NC(=O)C3CCOCC3)c2O[C@@H]1CN(C)S(=O)(=O)c1cccs1 | -40.3 | nt | -5.1 | 0.556
C[C@H]1CN([C@@H](C)CO)C(=O)c2cccc(NC(=O)Nc3ccccc3)c2O[C@@H]1CN(C)Cc1ccc(Cl)c(Cl)c1 | -5.2 | -0.2 | 6.5 | 0.105
COc1ccccc1N(CC(=O)Nc1ccccc1Cl)S(C)(=O)=O | nt | 2.1 | -4.8 | nt
NC(=O)CSc1nc2c(c(=O)n1-c1ccccc1)C1=C(CCC1)C2 | -11.1 | -0.9 | 16.0 | -0.355
COc1ccc(CN(C)C[C@H]2Oc3ccc(NC(=O)NC4CCCCC4)cc3C(=O)N([C@H](C)CO)C[C@H]2C)cc1 | ? | 0.5 | -1.6 | -0.55
Cc1ccc(S(=O)(=O)Nc2ccc3c(c2)CC(=O)N([C@H](C)CO)C[C@@H](C)[C@@H](CN(C)S(=O)(=O)c2cn(C)cn2)O3)cc1 | -35.8 | 0.5 | -11.6 | 0.332
C[C@@H]1CN([C@@H](C)CO)C(=O)c2cccc(NS(=O)(=O)c3ccc(Cl)cc3)c2O[C@@H]1CN(C)Cc1ccc(C(=O)Nc2ccccc2N)cc1 | nt | -4.5 | 34.7 | -0.97

Next section (7 carried over from the part before).
SMILES | Shh pathway inh | PD-1 reversal | MITF inh | YB-1 expression
C[C@@H]1CN([C@@H](C)CO)C(=O)c2cccc(NC(=O)C3CCOCC3)c2O[C@@H]1CN(C)S(=O)(=O)c1cccs1 | -40.3 | nt | -5.1 | 0.556
C[C@H]1CN([C@@H](C)CO)C(=O)c2cccc(NC(=O)Nc3ccccc3)c2O[C@@H]1CN(C)Cc1ccc(Cl)c(Cl)c1 | -5.2 | -0.2 | 6.5 | 0.105
COc1ccccc1N(CC(=O)Nc1ccccc1Cl)S(C)(=O)=O | nt | 2.1 | -4.8 | nt
NC(=O)CSc1nc2c(c(=O)n1-c1ccccc1)C1=C(CCC1)C2 | -11.1 | -0.9 | 16.0 | -0.355
COc1ccc(CN(C)C[C@H]2Oc3ccc(NC(=O)NC4CCCCC4)cc3C(=O)N([C@H](C)CO)C[C@H]2C)cc1 | ? | 0.5 | -1.6 | -0.55
Cc1ccc(S(=O)(=O)Nc2ccc3c(c2)CC(=O)N([C@H](C)CO)C[C@@H](C)[C@@H](CN(C)S(=O)(=O)c2cn(C)cn2)O3)cc1 | -35.8 | 0.5 | -11.6 | 0.332
C[C@@H]1CN([C@@H](C)CO)C(=O)c2cccc(NS(=O)(=O)c3ccc(Cl)cc3)c2O[C@@H]1CN(C)Cc1ccc(C(=O)Nc2ccccc2N)cc1 | nt | -4.5 | 34.7 | -0.97
Cc1ccc(S(=O)(=O)N(C)CC(=O)Nc2cccc(C(F)(F)F)c2)cc1 | nt | -1.8 | 21.2 | nt
CC(=O)N1CCc2cc(NC(=S)NCc3cccs3)ccc21 | -27.0 | 0.4 | -63.1 | 0.095
C[C@H](CO)N1C[C@H](C)[C@@H](CN(C)S(C)(=O)=O)Oc2c(NC(=O)c3cnccn3)cccc2C1=O | -4.6 | 3.0 | 1.9 | 0.316
CCc1nc(SCC(=O)Nc2ccc(C)cc2)n[nH]1 | nt | 1.7 | -1.0 | nt
C=C1C(=O)O[C@@H]2/C=C(/CO[C@@H]3O[C@H](CO)[C@@H](O)[C@H](O)[C@H]3O)CC/C=C3\C[C@H](OC3=O)[C@@H]12 | -6.7 | 1.4 | -21.8 | -0.313
N#C/C(=C\c1cc(Cl)cc(Cl)c1)c1cccnc1 | 73.4* | -2.8 | 1.9 | -0.25
C[C@@H]1CN([C@H](C)CO)C(=O)Cc2cc(NC(=O)CCN3CCOCC3)ccc2O[C@@H]1CN(C)S(=O)(=O)c1cn(C)cn1 | ? | nt | -7.9 | -0.0547
C[C@H]1CN([C@@H](C)CO)C(=O)Cc2cc(NC(=O)Nc3ccccc3)ccc2O[C@H]1CN(C)C(=O)NC1CCCCC1 | nt | 0.7 | -15.3 | 0.482
CNC[C@H]1Oc2ccc(NS(=O)(=O)c3cn(C)cn3)cc2C(=O)N([C@@H](C)CO)C[C@H]1C | nt | 0.8 | -1.7 | 1.14
COc1cccc(N(CC(=O)Nc2ccc(F)cc2F)S(C)(=O)=O)c1 | nt | 0.5 | -0.5 | nt
C=C1C(=O)O[C@@H]2C3O[C@]3(C)CC/C=C(/C)CC[C@@H]12 (some centres undefined) | 67.5* | nt | 68.4 | -0.0157
C[C@H](CO)N1C[C@H](C)[C@H](CN(C)S(=O)(=O)c2ccccc2)Oc2ccc(NS(C)(=O)=O)cc2C1=O | -27.1 | 1.2 | 2.7 | -0.412
OC(COc1ccc(Cl)cc1)Cn1cnc(-c2ccccc2)c1 (centres undefined) | nt | 0.6 | -2.5 | nt
COc1ccc(Cl)cc1N(CC(=O)Nc1cc(Cl)cc(Cl)c1)S(C)(=O)=O | nt | 4.1 | 19.6 | nt
C[C@@H]1CN([C@@H](C)CO)C(=O)c2cc(NS(=O)(=O)c3ccc(F)cc3)ccc2O[C@@H]1CN(C)CC1CCCCC1 | 3.4 | 0.2 | 3.7 | 0.0499
COC(=O)CCc1[nH]c2ccccc2c1Sc1ccccc1 | -11.0 | -2.9 | 13.8 | -0.567
CCn1c(SCC(=O)Nc2ccccc2C)nc2ccccc2c1=O | nt | -0.6 | -0.1 | nt
C[C@H]1CN([C@@H](C)CO)C(=O)c2cc(NS(=O)(=O)c3cccs3)ccc2O[C@H]1CN(C)C | -19.0 | 2.1 | -16.6 | 0.152
Cc1ccc(S(=O)(=O)Nc2ccc3c(c2)CC(=O)N([C@@H](C)CO)C[C@H](C)[C@@H](CN(C)S(=O)(=O)c2cccs2)O3)cc1 | 13.0 | 0.5 | 5.8 | -0.158
S=c1[nH]c(=S)c2cnc(N3CCOCC3)nc2[nH]1 | -12.3 | 0.7 | -8.6 | -0.697
COC(=O)c1ccc(NC(=O)CCC(=O)c2ccc(OC)cc2)cc1 | nt | 0.0 | -13.4 | nt
C[C@H]1CN([C@@H](C)CO)C(=O)Cc2cc(NC(=O)C3CC3)ccc2O[C@@H]1CN(C)S(=O)(=O)c1ccc(Cl)cc1 | 0.5 | nt | -1.4 | -0.147
COc1ccc(S(=O)(=O)N(C)C[C@H]2Oc3c(NS(=O)(=O)c4c(C)noc4C)cccc3C(=O)N([C@H](C)CO)C[C@H]2C)cc1 | 1.6 | 0.1 | -8.8 | 0.13
C[C@@H]1CN([C@H](C)CO)C(=O)Cc2cc(NS(=O)(=O)c3cn(C)cn3)ccc2O[C@@H]1CN(C)Cc1ccc(Cl)c(Cl)c1 | -0.5 | -2.0 | -23.7 | 1.01
C[C@H](CO)N1C[C@H](C)[C@H](CN(C)Cc2ccc(C(F)(F)F)cc2)Oc2c(NC(=O)Nc3ccc4c(c3)OCO4)cccc2C1=O | -24.1 | -3.9 | 9.0 | 0.211
C[C@H]1CN([C@@H](C)CO)C(=O)Cc2cc(NC(=O)C3CC3)ccc2O[C@H]1CN(C)C(=O)NC1CCCCC1 | -31.5 | 2.0 | -22.7 | 0.884
COc1ccccc1NC(=O)Cn1nnc(-c2ccc(C(F)(F)F)cc2)n1 | nt | 0.7 | -0.6 | nt
CC(C)NC(=O)N(C)C[C@@H]1Oc2ccc(NC(=O)C3CC3)cc2C(=O)N([C@@H](C)CO)C[C@H]1C | -1.6 | -0.9 | -2.1 | 0.117
Nc1ncnc(Nc2ccccn2)c1[N+](=O)[O-] | nt | 2.1 | -36.5 | nt
Cc1noc(C)c1NC(=O)Nc1ccc2c(c1)C(=O)N([C@H](C)CO)C[C@H](C)[C@H](CN(C)C(=O)NC1CCCCC1)OCCCC[C@@H](C)O2 | -44.7 | 0.5 | -1.5 | 0.0946
COc1ccc(NC(=O)N(C)C[C@H]2Oc3c(NC(=O)Nc4ccc5c(c4)OCO5)cccc3C(=O)N([C@H](C)CO)C[C@H]2C)cc1 | 14.2 | -0.7 | -2.8 | -0.692
C[C@@H]1CN([C@@H](C)CO)C(=O)c2cccc(NC(=O)Nc3ccccc3)c2O[C@@H]1CN(C)Cc1ccc(Oc2ccccc2)cc1 | 29.7 | nt | -9.5 | 0.255
C[C@H]1CN([C@@H](C)CO)C(=O)c2cccc(NS(=O)(=O)c3ccc(F)cc3)c2O[C@H]1CN(C)Cc1ccc(C(=O)Nc2ccccc2N)cc1 | nt | 1.5 | 33.2 | 0.199
COc1ccc2c(c1)O[C@H]1c3ccc(O)cc3OC[C@@H]21 | -27.5 | 3.2 | -5.3 | -0.0638
COc1ccc(S(=O)(=O)Nc2ccc3c(c2)C(=O)N([C@H](C)CO)C[C@H](C)[C@@H](CN(C)C(=O)Nc2ccc(C(F)(F)F)cc2)OCCCC[C@@H](C)O3)cc1 | 49.4 | nt | 22.1 | -0.653
C[C@H](CO)N1C[C@H](C)[C@@H](CN(C)C(=O)Nc2ccc(F)cc2)Oc2ccc(NC(=O)Nc3ccccc3)cc2C1=O | 7.1 | nt | -3.9 | 0.532
C[C@@H]1CN([C@H](C)CO)C(=O)c2cccc(NS(=O)(=O)c3ccc(Cl)cc3)c2O[C@@H]1CN(C)C(=O)Nc1ccccc1 | -5.5 | -1.5 | 2.0 | 0.184
COc1cc(C#N)c2ccc3ccccc3c2c1 | -7.2 | -0.8 | -0.7 | nt
Cc1noc(C)c1NC(=O)N(C)C[C@H]1Oc2ccc(NC(=O)Cn3cnnn3)cc2C(=O)N([C@@H](C)CO)C[C@@H]1C | 3.7 | 0.7 | -1.8 | 3.92*
C[C@@H]1CN([C@@H](C)CO)C(=O)c2cccc(N(C)C)c2O[C@@H]1CN(C)Cc1ccccc1 | 3.4 | 0.2 | -1.1 | 0.21
O=C(CSc1nnnn1-c1ccc(O)cc1)Nc1ccc(N2CCOCC2)c(Cl)c1 | nt | 1.1 | 3.8 | nt
C[C@@H]1CN([C@@H](C)CO)C(=O)c2cc(NS(=O)(=O)c3ccc(F)cc3)ccc2O[C@H]1CN(C)Cc1ccncc1 | -56.7 | nt | -6.4 | -0.314
C=C1C2CCC3[C@]4(C)CCC[C@@](C)(C(=O)O)C4CC[C@]3(C2)[C@H]1OC(C)=O (some centres undefined) | -12.2 | 1.4 | 5.7 | -0.213
COc1ccc(S(=O)(=O)Nc2ccc3c(c2)C(=O)N([C@H](C)CO)C[C@H](C)[C@@H](CN(C)Cc2ccc(C(F)(F)F)cc2)O3)cc1 | -17.0 | nt | 17.5 | 0.119
COc1cc(C2OCC3C(c4ccc5c(c4)OCO5)OC(=O)C23)ccc1O (centres undefined) | -19.4 | -0.9 | -18.4 | 0.657
CC(C)NC(=O)Nc1cccc2c1O[C@H](CN(C)C(=O)NC(C)C)[C@H](C)CN([C@H](C)CO)C2=O | 20.3 | nt | -0.6 | -0.0522
C[C@@H]1CCCCO[C@@H](CN(C)S(=O)(=O)c2cccs2)[C@@H](C)CN([C@H](C)CO)C(=O)c2cc(NC(=O)NC3CCCCC3)ccc2O1 | nt | -1.1 | 23.8 | 0.741
C[C@H](CO)N1C[C@H](C)[C@H](CN(C)C(=O)Nc2ccc(F)cc2)Oc2c(NC(=O)C3CCOCC3)cccc2C1=O | -15.0 | 2.4 | -11.3 | 0.63
CNC[C@@H]1Oc2ccc(NS(=O)(=O)c3ccc(F)cc3)cc2C(=O)N([C@@H](C)CO)C[C@@H]1C | -1.8 | 0.9 | -4.8 | -0.83
C[C@H](CO)N1C[C@H](C)[C@H](CN(C)S(=O)(=O)c2cn(C)cn2)Oc2ccc(NC(=O)NC3CCCCC3)cc2C1=O | nt | 4.5 | 0.4 | -0.474
Cc1ccc(NC(=O)CC2C(=O)NCCN2C(=S)Nc2ccccc2)c(C)c1 (centres undefined) | nt | 0.8 | 11.8 | nt
Cc1nn(-c2ccccc2)c2c1C(C(F)(F)F)(C(F)(F)F)N=C(N(C)C)O2 | nt | -0.7 | -6.2 | -0.229
N#Cc1c(C(F)(F)F)cc(-c2cccs2)nc1SCC(O)COc1ccc(Cl)cc1 (centres undefined) | nt | -5.9 | 11.1 | nt
C=C1C(=O)O[C@@H]2[C@H]3C(=C)[C@@H](O[C@@H]4O[C@H](CO)[C@@H](O)[C@H](O)[C@H]4O)C[C@H]3C(=C)C[C@@H](O)[C@@H]12 | 27.1 | -0.7 | 4.8 | 0.122
